Ecoli growth = E. coli growth inhibition, primary screen, OD600 | Escherichia coli growth, 23 h; hits give low values | OD600 absorbance (concentration not given with the values) | 330,000 compounds, 0.21% hits | AID 1053175, 2014;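 active = OD600 absorbance below the run mean of sample wells minus 3.6 SD, in any replicate, cut at about 0.56 in these data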;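 also: stock transfer was 300 nL into about 60 µL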
UCH37 DUB inh = inhibitors of human UCH37 deubiquitinase, primary screen, biochemical, Ub-AMC cleavage, fluorescence. purified proteasome/UCH37. inhibition, % (test concentration not listed). 330,000 compounds, 0.33% hits. AID 588478, 2011;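 active = mean of two replicates above 20%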;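 also: 0% = compound-free wells with enzyme and 100% = wells lacking proteasome; stock transfer was 100 nL into about 20 µL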
Target sequence (Q9Y5K5 whole entry, looked up): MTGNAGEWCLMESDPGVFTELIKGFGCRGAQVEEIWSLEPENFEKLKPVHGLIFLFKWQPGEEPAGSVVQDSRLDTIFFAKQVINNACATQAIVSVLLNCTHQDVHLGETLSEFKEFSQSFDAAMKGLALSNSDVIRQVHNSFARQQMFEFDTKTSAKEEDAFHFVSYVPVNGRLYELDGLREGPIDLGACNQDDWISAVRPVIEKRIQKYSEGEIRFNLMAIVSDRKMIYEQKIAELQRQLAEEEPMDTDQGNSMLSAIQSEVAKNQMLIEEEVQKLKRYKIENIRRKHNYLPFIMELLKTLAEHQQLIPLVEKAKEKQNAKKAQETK
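Material: human UCH37 enzyme supplied as purified proteasome complex / Amount: 0.15 nM proteasome as dispensed / Buffer or medium: pH 7.4 Tris-HCl (50 mM) with ovalbumin, ATP-MgCl2, DTT / Times: preincubation 30 min, reaction 25 min, room temperature / Technique: AMC fluorescence from Ub-AMC cleavage, excitation 355 nm, emission 460 nm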
Ecoli rRNA inh = reduced GFP signal of wild-type E. coli, primary screen, bacterial rRNA inhibitor project, GFP/RFP fluorescence, OD600, single point. E. coli WT GFP vs humanized-ribosome RFP mutants, 24 h; hits give low values; DMSO median 0, no signal -100. GFP signal change (wild-type ribosome), % (test concentration not listed). 350,000 compounds, 1.6% hits. AID 720706, 2013;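 active = significant combined selectivity score with lowered wild-type GFP, culture density cut under 30%, mutant RFP and density less affected; inactive = any of these conditions unmet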; also: one replicate is shown; some compounds called inactive have numbers as strong as hits
HNF4A DNA FP = change in binding of human HNF4A to DNA, primary screen, biochemical, fluorescence polarization, FITC-DNA; 360,000 compounds, 0.3% hits; 1 h; AID 1224865, 2016; activity change, % at 10 µM; in the data active = activity change above about 30%, passing the limit was not always enough;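 also: controls were the assay level and a saturating level of protein; the project sought stronger binding though the title names inhibitors; some compounds called inactive have numbers as strong as hits; positive values seem to mean higher polarization but the record does not say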
Target sequence (P41235 whole entry, looked up): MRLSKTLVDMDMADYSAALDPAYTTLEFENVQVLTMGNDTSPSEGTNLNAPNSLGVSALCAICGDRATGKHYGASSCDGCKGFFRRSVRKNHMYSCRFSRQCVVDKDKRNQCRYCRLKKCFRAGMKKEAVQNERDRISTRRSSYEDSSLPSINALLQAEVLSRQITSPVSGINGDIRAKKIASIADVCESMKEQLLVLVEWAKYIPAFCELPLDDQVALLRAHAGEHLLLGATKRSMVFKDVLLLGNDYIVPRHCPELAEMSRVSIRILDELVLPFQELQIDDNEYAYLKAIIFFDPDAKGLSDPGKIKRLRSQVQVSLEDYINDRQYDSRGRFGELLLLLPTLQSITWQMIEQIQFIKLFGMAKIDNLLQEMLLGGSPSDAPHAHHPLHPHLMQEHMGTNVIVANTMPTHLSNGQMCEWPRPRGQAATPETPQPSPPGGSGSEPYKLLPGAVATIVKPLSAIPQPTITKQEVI
Beta2AR agonist = beta2AR agonists driving receptor internalization, primary screen, cell-based, FAP fluorogen, flow cytometry; response, % (no concentration beside the values); 340,000 compounds, 0.43% hits; Am2.2-beta2AR cells; reference of the scale not given here; Beta-2 adrenergic receptor (Homo sapiens), P07550;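 active = response above a set limit, near 3 SD of response in nonfluorescent compounds, cut at about 42% in these data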;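 also: stock transfer was 100 nL into about 11 µL; a reference agonist was the positive control; negative values mostly stem from fluorescent compounds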
FGF22 binding = binders of human FGF22 protein, primary screen, FGF22 synaptogenesis inhibitor project, biophysical, thermal shift, single point; Fibroblast growth factor 22 (Homo sapiens), Q9HCT0; AID 651658, 2012; recombinant FGF22 thermal shift, SYPRO orange fluorescence; percent of sucrose octasulfate shift, DMSO zero; 340,000 compounds, 1.5% hits; calls only at 9.99 µM;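 active = melting point raised past a set limit in the mean and every replicate; three in four hits are not shown here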
ALR inh = inhibitors of human ALR sulfhydryl oxidase, primary screen, biochemical, H2O2 detection, HRP-luminol luminescence, single point | purified ALR, DTT oxidation | inhibition, % (concentration not given with the values) | 290,000 compounds, 3.8% hits;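 active = mean and each replicate at 75% or more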;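 also: stock transfer was 7.5 nL into about 7.5 µL; 0% = neutral wells and 100% = wells with inactivated enzyme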
Target sequence (P55789 whole entry, looked up): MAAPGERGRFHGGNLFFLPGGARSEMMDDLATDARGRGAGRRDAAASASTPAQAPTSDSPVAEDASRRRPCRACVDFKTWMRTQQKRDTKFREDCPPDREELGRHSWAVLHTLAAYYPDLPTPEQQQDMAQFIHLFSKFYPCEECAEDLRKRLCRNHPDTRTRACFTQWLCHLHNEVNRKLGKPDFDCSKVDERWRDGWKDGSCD
Ecoli rRNA inh OD600 = recorded beside Ecoli rRNA inh, whose call it bears; OD600 change, %; measured here: OD600 growth;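 optical density of the mix in the first replicate; 0 = DMSO median and -100 = no signal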
Ecoli rRNA inh RFP = also measured in Ecoli rRNA inh; calls as there; RFP signal change, %; measured here: RFP humanized mutant strains;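 first replicate; 0 = DMSO median and -100 = no signal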
* marks the source's active call; other numbers are inactive results; i = inactive; . = not tested or not shown; + = active, no number. A portion of the library; the hit share may differ from the screen's.

SMILES | Ecoli growth | UCH37 DUB inh | Ecoli rRNA inh | Ecoli rRNA inh OD600 | Ecoli rRNA inh RFP | HNF4A DNA FP | Beta2AR agonist | FGF22 binding | ALR inh
CC(=O)Nc1cccc(NC(=S)Nc2ccc(F)c(Cl)c2)c1 | 0.59 | 3.2 | -49 | -76 | -11 | -2.3 | -1 | + | -12
O=C(O)c1ccc(NC2=C/C(=N/S(=O)(=O)c3cccs3)c3ccccc3C2=O)cc1 | . | . | -25 | -22 | -3.8 | 2.5 | . | i | .
CC(C)c1ccc(N(CCc2ccccn2)C(=O)C(C)(C)C)cc1 | 0.71 | 2.3 | . | . | . | -1.2 | 5 | i | 0
CCOC(=O)C1=C(COC(=O)/C=C/c2ccccc2Cl)NC(=O)NC1C (stereo not drawn) | 0.69 | 4.2 | -2 | 1 | 0.3 | 1.3 | 1 | i | -2
CCc1ccc2oc(=O)cc(CN3CCC(C)CC3)c2c1 | 0.68 | -1.4 | . | . | . | -0.4 | -3 | . | -13
COC(=O)C1=CN(Cc2cccs2)C=C(C(=O)OC)C1c1ccc(OC)cc1OC | 0.7 | -405 | -12 | -10 | 0.9 | -9.8 | -5 | i | -5
Clc1ccccc1Cc1noc(CN2CCCCC2CCc2ccccn2)n1 (stereo not drawn) | 0.72 | 2.3 | -16 | -17 | 3.1 | 3.2 | -22 | . | -4
O=C(NC1CCCN(c2ccc(C(F)(F)F)cn2)C1)c1ccncc1 (stereo not drawn) | 0.7 | 2.6 | 2 | 2 | -1.7 | -0.8 | -3 | i | -3
Cc1ccc(CNC(=O)CC(NC(=O)c2ccccc2)c2ccccc2)cc1 (stereo not drawn) | 0.68 | 3.7 | 16 | 11 | -0.8 | 1.0 | -4 | i | 1
CC(=O)c1ccc(OCCCC(=O)N2CCN(S(=O)(=O)c3ccc(C(C)C)cc3)CC2)cc1 | 0.66 | 7.2 | -19 | -23 | -0.7 | 3.1 | -2 | i | .
O=C1CN(C(=O)COC(=O)c2ccc[n+]([O-])c2)c2ccccc2N1 | 0.69 | 2.8 | 12 | 2 | -5.8 | -2.4 | 4 | . | 0
COCc1ccc(C(=O)N2CCCCC2C(=O)Nc2ccc(-n3nc(C)cc3C)cc2)o1 (stereo not drawn) | 0.68 | 4.6 | 0 | -4 | -1.5 | -0.2 | -5 | i | 2
CCC(=O)Nc1c(S(=O)(=O)c2ccccc2)c2nc3ccccc3nc2n1C(C)c1ccccc1 (stereo not drawn) | 0.71 | -22 | . | . | . | 0.0 | 13 | . | -30
C/C(=N\NC(=O)C(=O)Nc1c(C)n(C)n(-c2ccccc2)c1=O)c1ccc(Cl)s1 | . | . | 11 | -2 | 1.0 | -3.0 | -4 | i | -9
Clc1nc2nc3n(c2nc1Cl)CCC3 | 0.64 | -5.0 | 6 | 10 | 2.2 | 0.0 | -74 | i | -2
O=C(CN1C(=O)NC2(CCCCC2)C1=O)N1CCN(C(=O)c2cccs2)CC1 | 0.68 | 2.2 | 8 | 13 | -1.4 | -2.2 | 1 | i | -2
CCN(CC)CCN(C(=O)c1ccc(C(=O)c2ccccc2)cc1)c1nc2ccc(OC)cc2s1 | 0.68 | 2.8 | -9 | -1 | 0.3 | -0.1 | -4 | i | -4
CCOc1ccc(-c2nc(N)nc(C)c2-c2ccc(OC)c(OC)c2)c(O)c1 | 0.7 | -2.1 | . | . | . | -5.5 | -8 | . | -5
COc1ccc2[nH]c3c(c2c1)CN(C)CC3 | 0.7 | 3.7 | 1 | 7 | -2.7 | 0.3 | -2 | . | -44
CCN(CC)CCCn1c(SCC(=O)NCC2CCCO2)nc2ccccc2c1=O (stereo not drawn) | 0.64 | -16 | -3 | -6 | -1.8 | 2.9 | -5 | i | .
CN(C)Cc1ccc(F)cc1Sc1ccc(Cl)cc1Cl | 0.62 | 3.4 | . | . | . | -2.4 | 15 | . | -35
CCN(CC)c1ccc(S(=O)(=O)N2CCOCC2)cc1NC(=O)COC(=O)/C=C/c1ccccc1 | 0.72 | 5.3 | 5 | 5 | 14 | 2.2 | 0 | i | .
CC(C)CN(CC(C)C)C(=O)Nc1cccc([N+](=O)[O-])c1 | 0.69 | -0.9 | -1 | -3 | 0.6 | 4.8 | 0 | i | .
Cc1cc2nccc(-c3ccccn3)n2n1 | 0.7 | 0.9 | 9 | 0 | -3.2 | -0.1 | -6 | i | -2
COCCN(CC(=O)Nc1cccc(C)c1C)C(=O)c1oc2c(Cl)cccc2c1C | 0.71 | 2.4 | 10 | 11 | 2.8 | 3.0 | 0 | i | 2
CCC1c2ccc(C)n2CCN1C(=O)Nc1ccccc1OC (stereo not drawn) | 0.69 | -5.5 | . | . | . | -1.6 | -7 | . | 28
CC(=O)Nc1cccc2c1C(=O)N(c1cccc(OC(C)=O)c1)C2=O | 0.71 | -1.1 | 26 | 16 | -1.3 | 0.5 | 0 | . | 10
CCOC(=O)N1CCC(NC(=O)C2CCN(C(=O)N3CC(C)Oc4ccccc43)CC2)CC1 (stereo not drawn) | 0.62 | 0.9 | 28 | 19 | 0.3 | 14 | 14 | . | 5
Cc1ccc(C)c(NS(=O)(=O)c2ccc(-c3coc(C)n3)cc2)c1 | 0.64 | 0.3 | -31 | -27 | -9.0 | 0.2 | 7 | i | 0
CCOc1cc(/C=N/NC(=O)c2cccnc2)ccc1O | . | . | 5 | 1 | -7.1 | 0.8 | -1 | i | .
COc1ccc(NC(=O)CC2SC(N3CCCCC3)=NC2=O)cc1OC (stereo not drawn) | 0.67 | -2.7 | 8 | 14 | -0.4 | 1.9 | -3 | i | .
CCCc1ccc(OCc2ccc(C(=O)N3CCSCC3)o2)cc1 | . | . | 4 | -35 | -6.4 | -4.1 | 4 | i | 2
Cc1ccc(S(=O)(=O)NN=C(c2ccccc2)c2cccs2)cc1 | . | . | -1 | 3 | 1.5 | -0.8 | . | i | .
CC1(C)NC(=O)N(CCCC(=O)Nc2ccc(C(F)(F)F)cc2)C1=O | 0.69 | 1.6 | . | . | . | 3.1 | -1 | i | .
COc1ccc(-n2nc(C(=O)NCC(=O)Nc3cc(OC)c(OC)c(OC)c3)c3ccccc3c2=O)cc1 | 0.71 | -1.9 | -2 | 0 | -5.6 | 4.5 | 21 | i | -5
COc1cc(/C=C2\SC(=S)N(CCC(=O)N3CCCCC3)C2=O)cc(OC)c1OC | 0.67 | 5.2 | -3 | -1 | -0.8 | -4.8 | 11 | i | .
Cc1ccc(Cn2cc(CN3CC(N4CCCCC4)CS3(=O)=O)nn2)cc1 (stereo not drawn) | . | . | 27 | 11 | 0.6 | -3.2 | . | i | .
Cc1c(C(=O)NCC2CCCO2)oc2ccc(Br)cc12 (stereo not drawn) | 0.69 | -0.2 | -4 | -5 | -0.4 | -0.3 | -4 | i | .
Cc1cc(C(=O)Cn2nnc3ccccc3c2=O)c(C)n1-c1c(C)n(C)n(-c2ccccc2)c1=O | 0.72 | 7.0 | . | . | . | -3.3 | -15 | . | -3
CCOC(=O)CSc1nc2cc(C)ccc2cc1C#N | 0.65 | 1.6 | . | . | . | 3.5 | 10 | . | -8
COc1ccc(C(C)=O)cc1CSc1nnc2c(Cl)cc(Cl)cn12 | 0.68 | 5.8 | . | . | . | 0.7 | -18 | i | -9
N#CC1(NC(=O)COC(=O)c2ccccc2SCC(=O)N2CCCC2)CCCCC1 | 0.73 | 2.8 | 12 | 4 | 2.2 | 3.8 | -13 | i | 4
CCOC(=O)c1sc(NC(=O)c2cc(-c3cccc(O)c3)on2)c(C(=O)OCC)c1C | 0.78 | 0.9 | 16 | 12 | 3.1 | 4.1 | 7 | i | -5
CC(C)(C)C(=O)Nc1ccc(C(=O)CSc2nnc(C3CC3)n2C2CC2)cc1 | 0.63 | 1.9 | -5 | -4 | -0.6 | 2.8 | 2 | i | 45
O=c1c(CN2CCN(Cc3ccccc3)CC2)coc2ccc(Cl)cc12 | 0.72 | 1.1 | . | . | . | 0.9 | -2 | . | 7
O=C(CN1c2cccc3cccc(c23)S1(=O)=O)NCc1ccccc1Cl | . | . | -38 | -31 | -1.7 | -0.9 | . | i | .
CS(=O)(=O)Nc1ccc(C(=O)Nc2cccc([N+](=O)[O-])c2)cc1 | 0.61 | 3.3 | -8 | 3 | -2.2 | -2.9 | 4 | i | -1
Cc1ccc(S(=O)(=O)N2CCOC2CNC(=O)C(=O)NCCc2ccccc2)cc1 (stereo not drawn) | 0.74 | 5.0 | -8 | -10 | -7.7 | 3.7 | -6 | i | 5
COc1ccc(S(=O)(=O)N(C)C[C@H]2Oc3c(NC(=O)CCC(F)(F)F)cccc3C(=O)N([C@H](C)CO)C[C@@H]2C)cc1 | 0.8 | 2.5 | 0 | 1 | -0.5 | -0.3 | -16 | i | -5
CCC(/C=C1\Sc2ccc(OC)cc2N1CCO)=C\c1sc2ccc(OC)cc2[n+]1CCO | 0.78 | 10 | 4 | 7 | 39 | 8.3 | 23 | i | 9
COc1ccc(-c2ccccc2)cc1NC(=O)[C@@H]1O[C@H](CO)[C@H](O)[C@H](O)[C@H]1O | . | . | 9 | 24 | 0.3 | 0.1 | . | i | .
N/C(=N\OC(=O)c1ccccc1F)c1ccc([N+](=O)[O-])cc1 | . | . | 2 | 18 | -0.2 | 2.5 | -6 | i | -6
CCn1c(CNC(=O)COC)nc2ccccc21 | 0.72 | 5.9 | 0 | 9 | -1.2 | 2.2 | 3 | i | -15

Retrieved by structure from the entries so far, four records:
SMILES | Ecoli growth | UCH37 DUB inh | Ecoli rRNA inh | Ecoli rRNA inh OD600 | Ecoli rRNA inh RFP | HNF4A DNA FP | Beta2AR agonist | FGF22 binding | ALR inh
COc1ccc(-c2ccccc2)cc1NC(=O)[C@@H]1O[C@H](CO)[C@H](O)[C@H](O)[C@H]1O | . | . | 9 | 24 | 0.3 | 0.1 | . | i | .
CCC(/C=C1\Sc2ccc(OC)cc2N1CCO)=C\c1sc2ccc(OC)cc2[n+]1CCO | 0.78 | 10 | 4 | 7 | 39 | 8.3 | 23 | i | 9
CC(C)(C)C(=O)Nc1ccc(C(=O)CSc2nnc(C3CC3)n2C2CC2)cc1 | 0.63 | 1.9 | -5 | -4 | -0.6 | 2.8 | 2 | i | 45
N/C(=N\OC(=O)c1ccccc1F)c1ccc([N+](=O)[O-])cc1 | . | . | 2 | 18 | -0.2 | 2.5 | -6 | i | -6

In the list so far, 2 have a tert-butyl group:
SMILES | Ecoli growth | UCH37 DUB inh | Ecoli rRNA inh | Ecoli rRNA inh OD600 | Ecoli rRNA inh RFP | HNF4A DNA FP | Beta2AR agonist | FGF22 binding | ALR inh
CC(C)c1ccc(N(CCc2ccccn2)C(=O)C(C)(C)C)cc1 | 0.71 | 2.3 | . | . | . | -1.2 | 5 | i | 0
CC(C)(C)C(=O)Nc1ccc(C(=O)CSc2nnc(C3CC3)n2C2CC2)cc1 | 0.63 | 1.9 | -5 | -4 | -0.6 | 2.8 | 2 | i | 45

High-throughput results: PubChem BioAssay, several laboratories
